2A Renilla: lowers the Renilla signal of an FMDV 2A StopGo reporter. Potency, µM (doses to about 57.5 µM), for inactives: at the highest dose signal change, negative = less light. AID 1745857. HEK cells with a luciferase reporter of 2A StopGo recoding. 120,000 compounds, 0.32% hits; active means well fitted falling curve with a large enough effect; inconclusive means small, poorly fitted or top-dose-only effect; inactive means no such curve, though single readings can be large or run the other way; further: nearly all actives have a fitted effect of over 55% in size; overnight with compound
2A firefly: FMDV 2A StopGo reporter, firefly signal. HEK cells with a luciferase reporter of 2A StopGo recoding. Potency, µM (series often up to 57.5 µM), for inactives: at the highest dose signal change, negative = less light. 120,000 compounds, 0.23% hits. AID 1745856; active = well fitted falling curve with a large enough effect; inconclusive = small, poorly fitted or top-dose-only effect; inactive = no such curve, though single readings can be large or run the other way; further: nearly all actives have a fitted effect of over 60% in size; overnight with compound
* = called active by the depositor; ? = inconclusive; & = joins results of further samples; [ ] = remark or other dose. On the % scale 0 is the no-effect control and ±100 the full control effect; potency means the concentration at half of the fitted maximal effect.

Compound	2A Renilla	2A firefly
CCCNC(=O)c1ccc(Oc2nccnc2Sc2ccccc2)cc1	-2.9%	72.3%[activator]
O=C(CC1N=C2c3ccccc3N=C(SCc3ccccc3F)N2C1=O)NCc1ccc2c(c1)OCO2 (stereo unspecified)	69.4%[activator]	181.9%[activator]
CC1CCCN(c2nc3c(c(=O)[nH]c(=O)n3C)n2CCCc2ccccc2)C1 (stereo unspecified)	4.1%	-2.4%
CC1(C)CC(=O)C(CCS(=O)(=O)Oc2ccccc2)(CCS(=O)(=O)Oc2ccccc2)C(=O)C1	-9.3%	22.7%
Cc1cccc(C(=O)NC2CCCCC2C)c1 (stereo unspecified)	55.8%[activator]	111.9%[activator]
COc1ccc(-n2c(=O)c3sc4ccccc4c3n(CC(=O)Nc3cccc(C)c3)c2=O)cc1	-8.4%	80.0%[activator]
CCOc1cc2sc(N3CCC(C(=O)Nc4ccc(CC)cc4)CC3)nc2cc1Br	-8.1%	45.6%[activator]
Cn1cc(C(=O)NCc2ccccc2Cl)c(=O)c2cc(S(=O)(=O)N3CCCCCC3)ccc21	-4.4%	-15.2%
O=C(Cn1c(=O)n(Cc2ccco2)c(=O)c2ccccc21)Nc1ccc(Cl)cc1Cl	-2.2%	1.6%
O=C1COc2ccc(C(=O)COC(=O)c3nn(Cc4ccccc4)c(=O)c4ccccc34)cc2N1	4.7%	-0.6%
CCOc1ccc(Nc2c(S(=O)(=O)c3ccc(C)cc3)cnc3cc(OC)c(OC)cc23)cc1	6.8%	-4.4%
Cc1ccc(Cl)cc1N1CCN(S(=O)(=O)c2ccc3[nH]c4c(c3c2)CCCC4)CC1	35.7%[activator]	4.6%
CC(=O)c1ccccc1NC(=O)COC(=O)c1ccc2ccccc2n1	-5.8%	-0.1%
O=C(CCSC1CCc2ccccc2NC1=O)Nc1ccc(CCO)cc1 (stereo unspecified)	4.5%	22.4%
O=C(Nc1ccccc1Cl)c1cc(C2CC2)nn1-c1ccccc1	6.4%	18.5%
CCOc1ccc(SC(C(N)=O)c2ccccc2)cc1 (stereo unspecified)	-12.4%	-8.6%
CCn1c(=O)c2sccc2n2c(CCCC(=O)N3CCN(c4cc(Cl)ccc4C)CC3)nnc12	-9.8%	-16.9%
COc1ccc(-c2noc(CN(C(=O)c3ccc(C)cc3C)C(C)C)n2)cc1	10.7%	-1.2%
O=C(NCCc1c[nH]c2ccccc12)NC1CCCCCCC1	14.6%	98.1%[activator]
COc1ccc(OCc2nc(C#N)c(NCCN3CCOCC3)o2)cc1	-17.0%	-10.1%
COc1ccccc1N1CCN(C(=O)c2cc3c(=O)n(C)c4ccccc4c3s2)CC1	14.2%	14.4%
Cc1ccc(CN2CCC(CNC(=O)CCc3nnc4ccc(N5CCCCC5)nn34)C2)cc1 (stereo unspecified)	-11.9%	-5.2%
N#Cc1nc(COc2ccc(Br)cc2)oc1NC1CC1	15.8%	68.3%[activator]
CCN(c1ncnc2c1cnn2-c1ccc(C)cc1)C1CCCCC1	7.8%	-19.1%
Cn1c(CCc2ccccc2)nc2cc(NC(=O)c3ccc(C#N)cc3)ccc21	?	?
O=C(NCCC(=O)N1CCN(c2ncccn2)CC1)c1ccc(F)cc1F	-1.6%	23.7%
Cc1cc(=O)oc2cc3occ(-c4ccccc4)c3cc12	28.0%	31.2%[activator]
CCOc1ccc(N2C(=O)N(Cc3c(F)cccc3Cl)c3ccccc3S2(=O)=O)cc1	31.8%[activator]	1.1%
CC(=O)c1cccc(NC(=O)Cn2cc(C(=O)c3cccc(Cl)c3)c(=O)c3ccc(C)nc32)c1	-5.7%	-22.6%
COc1ccc(-c2cc(C(=O)OC(C)C#N)c3ccccc3n2)cc1OC (stereo unspecified)	-6.8%	10.8%
Cc1ccc(-c2cc3c(SCC(=O)N4CCN(c5ccc(F)cc5)CC4)nccn3n2)cc1	-2.1%	29.5%
Cc1ccc2c(C)nc(Nc3nc(CSc4ncccn4)cc(=O)[nH]3)nc2c1	4.7%	13.3%
CCc1c(C)nc2nncn2c1Nc1cccc(C)c1	18.6%	0.0%
CCOC(=O)c1ccc(N2CCN(c3cccc(OC)c3)CC2)c(NC(=O)Nc2ccc(OCC)cc2)c1	-7.6%	-1.9%
CCOC(=O)c1c(C)oc2nc(C)nc(NCc3ccccc3OCC)c12	-12.9%&-13.6%	-12.0%&-4.0%
COc1ccccc1NC(=O)c1ccccc1NC(=O)c1ccccc1	-12.1%	-14.2%
Cc1ccc(C)c(NC(=O)Cn2nc(C)c3ccccc32)c1	-6.7%	-4.1%
Cc1ccc(-n2nc3ccc(NC(=O)c4oc5ccc(C)cc5c4C)cc3n2)cc1	2.0%	23.8%
CC(N)c1ccc(OCC(F)(F)F)cc1 (stereo unspecified)	-6.8%	3.6%
Cc1ccc(OCCSc2nc3ccc(NC(=O)c4cccs4)cc3s2)cc1	-12.3%	-0.6%
Cc1ccc(-c2cc(C(F)(F)F)n3ncc(-c4ccc(Cl)cc4)c3n2)cc1	-0.2%	-4.7%
O=C(NCc1ccccc1Cl)c1ccccc1-c1ccccc1	62.8%[activator]	0.0%
OCC(CO)(CO)NCC(O)CNC(CO)(CO)CO	-4.0%	-2.2%
COC(=O)c1ccc(COc2ccccc2C#N)cc1	8.1%	154.1%[activator]
COc1ccc(C=O)cc1COc1cc(C)cc(C)c1	2.0%	0.0%
Cc1c(Cl)cccc1NC(=O)N1CCN(C(=O)c2nsc3ccccc23)CC1	11.4%	14.4%
COc1ccc(CCNC(=O)c2ccc(C3Nc4ccccc4S(=O)(=O)N3)cc2)cc1OC (stereo unspecified)	-1.2%	9.8%
O=C(O)c1cc(Br)cs1	4.0%	30.7%[activator]
CC1(C)CC(NC(=O)C2CCCC2)CC(C)(CNC(=O)C2CCCC2)C1 (stereo unspecified)	-0.3%	-7.0%
O=C(CCC(=O)c1ccc(F)cc1)Nc1ccc(-c2ccccc2)cc1	4.0%	17.5%
O=C(Cc1ccc2c(c1)CCC2)Nc1ccccc1Cc1ccccc1	-4.5%	-6.7%
CCOC(=O)c1c(C)[nH]c(CCC(=O)NCc2ccc(N(C)C)cc2)c1C	10.5%	1.2%
CC(C)CCn1cnc2c1c(=O)n(Cc1ccc(C#N)cc1)c(=O)n2Cc1ccccc1	-6.0%	-1.4%
Cc1nn(CCCC(=O)Nc2cccc(C(F)(F)F)c2)c(=O)c2nn(-c3ccccc3)c(C)c12	-14.7%	-16.7%
COc1ccc(Br)c2c1/C(=N/OC(=O)c1cccc3ccccc13)CC2	13.7%	-5.8%
CC1=C(c2ccc(C)c(C)c2)S(=O)(=O)N=C1N1CCN(c2cccc(C(F)(F)F)c2)CC1	-7.5%	-17.1%

Additional compounds.
Compound	2A Renilla	2A firefly
COc1ccc2oc(=O)cc(CN3CCN(C(=O)c4ccccc4F)CC3)c2c1	2.8%&-16.4%	-0.5%&-22.9%
Cc1ccc(C)c(NC(=O)Cn2c(=O)n(CC3CCCO3)c(=O)c3ccccc32)c1 (stereo unspecified)	12.8%	-5.7%
Cc1cccc(Cn2c(CN3CCC(C(=O)NCCc4ccccc4)CC3)cc3ccccc32)c1	-19.8%	4.6%
CN1C(=O)CC(C(=O)Nc2ccc(C(=O)O)cc2)SC1=Nc1ccc(Cl)cc1 (stereo unspecified)	-1.2%	13.6%
COc1ccc(C(=O)Nc2nc3cc(OC)c(OC)cc3c(=O)[nH]2)cc1	-6.1%	-3.5%
CCN(CC)c1ccc(C(=C2C=CC(=[N+](CC)CC)C=C2)c2cc(S(=O)(=O)O)ccc2S(=O)(=O)[O-])cc1	-24.1%	?
Cc1oc(-c2ccccc2)nc1C(=O)NC1CCCCC1	-3.6%	26.9%
CC(=O)Nc1ccc(S(=O)(=O)Nc2nc3n(n2)C(c2ccccc2)C=C(c2ccc(Cl)cc2)N3)cc1 (stereo unspecified)	2.4%	-12.0%
CC(c1ccccc1)N(C)C(=O)NC1CCCC(C(F)(F)F)C1 (stereo unspecified)	-0.8%	-11.8%
Cc1cc(Br)ccc1NC(=O)CSc1c2c(nc3ccccc13)CCC2	41.0%[activator]	-10.4%
CCCc1nn2c(=O)cc(COC(=O)c3ccc(NC(=O)COc4ccccc4)cc3)nc2s1	-9.9%	-16.9%
CC(=O)N1CCC2(CC1)Oc1ccc(Br)cc1C1CC(c3ccco3)=NN12 (stereo unspecified)	60.3%[activator]	19.8%
Cc1cc(C)c(NC(=O)c2cc(C)nc3ccccc23)c(C)c1	1.2%	11.0%
COc1ccccc1CNC(=O)CCn1nc(C)c2c(C)n(-c3ccccc3)nc2c1=O	21.1%	6.5%
CN(C)c1ccc(CNC(=O)C2CCCN(S(=O)(=O)c3ccc4c(c3)oc(=O)n4C)C2)cc1 (stereo unspecified)	-9.3%	?
Cc1ccc(NC(=O)CCCc2nnc3n(C)c(=O)c4sccc4n23)cc1F	0.0%	-14.6%
COc1ccc(NC(C)=O)cc1NC(=O)CNC(c1ccc(F)cc1)c1cccs1 (stereo unspecified)	-8.0%	-10.5%
Cc1ccc(Cn2c(CNS(=O)(=O)c3c(C)cc(C)cc3C)nc3cccnc32)cc1	239.0%[activator]	6.2%
Cc1nc2ccccc2n1Cc1ccc(Cl)cc1	?	?
COc1cc(C=O)ccc1OCc1c(F)cccc1Cl	64.2%[activator]	138.2%[activator]
CC(C)Oc1ccc(C(=O)Nc2ccc3oc(=O)ccc3c2)cc1	?	-41.7%
CCCNC(=O)c1ccccc1NC(=O)Cn1cnc2c1c(=O)n(C)c(=O)n2C	-5.1%	2.3%
COc1ccc(S(=O)(=O)Nc2cc(N3CCCS3(=O)=O)ccc2OC)cc1	85.6%[activator]	7.1%
CCc1cccc(CC)c1NC(=O)CO/N=C/c1ccccc1O	44.9%[activator]	12.5%
CCOc1ccc2oc(C(=O)N3CCN(CC(=O)Nc4c(C)cccc4C)CC3)c(C)c2c1	-9.1%	10.7%
CCc1ccc(NC(=O)NC(C(=O)N2CCc3ccccc32)c2ccccc2)cc1 (stereo unspecified)	-8.6%	-19.4%
C(=N\Nc1cccc2cccnc12)/c1c[nH]c2ccccc12	24.3%[1.06 µM]	106.8%[activator]
O=C(Cn1nc(-c2ccccc2)c2c(c1=O)CCCC2)Nc1ccccc1	7.3%	17.4%
O=C(NCc1ccco1)NNc1nc2c(-c3ccccc3)nnn2c2ccccc12	-5.6%	-2.8%
CC1CCN(CCCNC(=O)CN2C(=O)CSc3ccc(S(=O)(=O)N4CCOCC4)cc32)CC1	-7.6%	-13.4%
COC(=O)C1=CN(C)C=C(C(=O)OC)C1c1cccs1	14.6%	0.9%
Cc1ccc(CNC(=O)CSCc2ccccc2C)cc1	-4.3%	51.7%[activator]

Sorted by count of non-hydrogen atoms (lowest first): 3 of the compounds above
Compound	2A Renilla	2A firefly
Cc1ccc(CNC(=O)CSCc2ccccc2C)cc1	-4.3%	51.7%[activator]
CCc1ccc(NC(=O)NC(C(=O)N2CCc3ccccc32)c2ccccc2)cc1 (stereo unspecified)	-8.6%	-19.4%
CC1CCN(CCCNC(=O)CN2C(=O)CSc3ccc(S(=O)(=O)N4CCOCC4)cc32)CC1	-7.6%	-13.4%

New compounds follow:
Compound	2A Renilla	2A firefly
Cc1c(Cl)cccc1NC(=O)COC(=O)c1ccc2ccccc2n1	-11.3%	-5.5%
C#CCCN([C@@H](CC(C)C)C(=O)OC)S(=O)(=O)c1ccc(F)cc1Br	9.0%	0.3%
O=C1CC(c2ccc(Br)cc2)c2c(ccc3ccccc23)N1 (stereo unspecified)	-9.2%	-16.1%
CCOC(=O)c1c(NC(=O)CSc2cn(CCNC(=O)c3ccc(OC)c(OC)c3)c3ccccc23)sc2c1CCCC2	-10.2%	-10.7%
Cc1nc(N2CCCC2)ncc1C(=O)Nc1ccccc1	22.7%	38.7%[activator]
CC(C)(C)C(=O)/C(C#N)=C\c1ccc(C#N)cc1	16.8%	21.2%
FC(F)(F)c1cccc(Nc2c3c(nc4ccc(Cl)cc24)CCC3)c1	?	?
Cc1ccc2cccc(NC(=O)COc3ccc(Cl)c(C)c3)c2n1	1.6%	21.9%
CC(=O)c1ccc(NC(=O)c2cc(C)nn2-c2ccccc2)cc1	0.9%	2.1%
O=C(Cc1csc(-c2ccccc2Cl)n1)Nc1nc2c(s1)CCCCC2	-1.1%	6.6%
COc1ccc(C(C)=O)cc1COC(=O)Cc1ccc(Cl)cc1	6.3%	0.4%
CNCc1ccc(-c2cc(Cl)ccc2Cl)o1	-10.2%	-8.3%
Cc1ccc(C(NC(=O)CSc2nnnn2C)c2cccs2)cc1 (stereo unspecified)	47.6%[activator]	26.2%
N#Cc1c(NC(=O)CSc2nccn2C2CC2)sc2c1CCCCC2	2.3%	120.6%[activator]
N#Cc1cccc(Nc2c3c(nc4ccc(Cl)cc24)CCC3)c1	-0.7%	-14.2%
O=C(Nc1cccc(F)c1)C1CCN(c2nc3ccccc3nc2C(F)(F)F)CC1	-3.1%	-15.3%
CCOC(=O)c1c(C)[nH]c(C)c1S(=O)(=O)N(C)CC(=O)Nc1cccc(C(C)=O)c1	39.1%[activator]	0.7%
CCCC(C)NC(=O)Nc1cc(C(=O)NC2CC2)ccc1C (stereo unspecified)	2.0%	0.1%
CCOc1ccc(S(=O)(=O)NCC(c2cccs2)S(=O)(=O)c2ccc(C)cc2)cc1 (stereo unspecified)	185.9%[activator]	-13.9%
CCC(C)(C)NC(=O)C1CCN(S(=O)(=O)c2c(C)noc2/C=C/c2ccc(C)cc2)CC1	-7.2%	-7.6%
CCOc1ccc(CCNC(=O)CCCn2c(=O)c3cccn3c3cccnc32)cc1OCC	-1.7%	-3.9%

Screens (PubChem BioAssay)

The list is partial. The share of hits here may be higher or lower than overall.
